# HPGD inh: blocks human HPGD enzyme activity; purified HPGD, NADH fluorescence kinetic, PGE2 substrate; Potency, µM, for inactives: at the top dose activity change, negative = inhibition, hits mostly inhibitors; P15428; AID 894; 150,000 compounds, 4.3% hits; active = well fitted inhibition curve with a large enough effect (not every such curve was filed as active); inconclusive = small, poorly fitted or top-dose-only effect, or another doubt; inactive = no such curve, though single readings can be large or run the other way;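 also: top concentration of the series not given in the record; plate controls included wells without enzyme; inactives centre near -10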
# Target sequence (P15428 whole entry, looked up): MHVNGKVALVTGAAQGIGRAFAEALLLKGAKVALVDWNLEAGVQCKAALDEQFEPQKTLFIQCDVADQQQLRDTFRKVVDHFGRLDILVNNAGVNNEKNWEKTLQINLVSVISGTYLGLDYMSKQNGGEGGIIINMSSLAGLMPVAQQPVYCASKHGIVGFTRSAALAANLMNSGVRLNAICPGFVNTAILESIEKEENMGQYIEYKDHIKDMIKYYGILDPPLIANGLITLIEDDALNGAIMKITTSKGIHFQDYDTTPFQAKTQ
#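 NADH formation kinetics: reaction with 30 uM PGE2 and 1 mM NAD+ (final), 20 nM enzyme, Tris-HCl pH 8 with Tween 20, after 15 min compound preincubation at room temperature. Fluorescence change, last versus first of five reads.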
# Numbers without * were called inactive; ? = inconclusive; & = joins results of further samples. % is scaled to controls: 0 for no effect and ±100 for the full control effect; potency is read from the fitted curve at half-maximal effect.
canonical_smiles,HPGD inh
CC12CCC(C(=O)Nc3ccccc3)(C/C1=N\O)C2(C)C (stereo not drawn),-3%
O=[N+]([O-])c1ccc(NC2CCCC2)cc1,-22%
CCN1CC=C2C(C1)C(c1ccc(Cl)s1)C(C#N)=C(N)C2(C#N)C#N (stereo not drawn),-23%
O=C(/C=C/c1ccco1)Nc1cccc(S(=O)(=O)N2CCOCC2)c1,-12%
COc1ccc(C2(C(=O)Nc3ccccc3)CCOCC2)cc1,5%
COc1ccc(C2CC(c3ccccc3)=NN2C(=O)CN2N=NC3C(=O)N(c4cccc(F)c4)C(=O)C32)cc1 (stereo not drawn),-13%
CC1C2C(C)N(C)C(=O)N(C)C2N(C)C(=O)N1C (stereo not drawn),-3%
COCCCNC(=O)c1cccc(NC(=O)c2ccccc2)c1,-8%
O=C(COc1ccc(Cl)cc1)N/N=C/CCc1ccccc1,-20%
COc1cccc(-c2nc3ccccc3c(=O)o2)c1,?
Cc1ccc(SCCOCCN2CCc3ccccc3C2)cc1,1%
C=C(C)Cn1c(Sc2nc3ccccc3[nH]2)nc2c1c(=O)[nH]c(=O)n2C,-11%
O=C(c1ccncc1)N1CCN(C(=O)c2cccc3ccccc23)CC1,-3%
CC(N)(Cc1ccc(O)c(O)c1)C(=O)O (stereo not drawn),10µM*
CCC(=O)Nc1ccc(NC(=O)CN2CCCC(C)C2)c(Cl)c1 (stereo not drawn),-14%
CC1=NN(C(=O)Cn2nc([N+](=O)[O-])c(Br)c2C)C(O)(C(F)(F)F)C1 (stereo not drawn),-1%

# Reformatted with values ahead of the structure: entries from further up.
HPGD inh	SMILES
-22%	O=[N+]([O-])c1ccc(NC2CCCC2)cc1
-23%	CCN1CC=C2C(C1)C(c1ccc(Cl)s1)C(C#N)=C(N)C2(C#N)C#N (stereo not drawn)
-12%	O=C(/C=C/c1ccco1)Nc1cccc(S(=O)(=O)N2CCOCC2)c1
5%	COc1ccc(C2(C(=O)Nc3ccccc3)CCOCC2)cc1
-13%	COc1ccc(C2CC(c3ccccc3)=NN2C(=O)CN2N=NC3C(=O)N(c4cccc(F)c4)C(=O)C32)cc1 (stereo not drawn)
-3%	CC1C2C(C)N(C)C(=O)N(C)C2N(C)C(=O)N1C (stereo not drawn)
-8%	COCCCNC(=O)c1cccc(NC(=O)c2ccccc2)c1
-20%	O=C(COc1ccc(Cl)cc1)N/N=C/CCc1ccccc1
?	COc1cccc(-c2nc3ccccc3c(=O)o2)c1
1%	Cc1ccc(SCCOCCN2CCc3ccccc3C2)cc1
-11%	C=C(C)Cn1c(Sc2nc3ccccc3[nH]2)nc2c1c(=O)[nH]c(=O)n2C
-3%	O=C(c1ccncc1)N1CCN(C(=O)c2cccc3ccccc23)CC1
10µM*	CC(N)(Cc1ccc(O)c(O)c1)C(=O)O (stereo not drawn)
-14%	CCC(=O)Nc1ccc(NC(=O)CN2CCCC(C)C2)c(Cl)c1 (stereo not drawn)
-1%	CC1=NN(C(=O)Cn2nc([N+](=O)[O-])c(Br)c2C)C(O)(C(F)(F)F)C1 (stereo not drawn)

# (more compounds)
canonical_smiles,HPGD inh
CCc1ccc(C(C(=O)NC(C)(C)CC)N(Cc2ccco2)C(=O)Cn2nnc3ccccc32)cc1 (stereo not drawn),-10%
O=c1[nH]c(CN(CCO)CCO)nc2c1C1(CCCCC1)Cc1ccccc1-2,-5%
O=C(O)c1cn(C2CC2)c2cc(N3CCNCC3)c(F)cc2c1=O,?
Cc1nn(-c2ccccc2)c(Cl)c1/C=N/O,-28%
COc1ccc(-n2c(Cc3cccn3C)nnc2SCC(=O)Nc2ccc(C)cc2C)cc1,1%
CN(CCc1ccccn1)C(=O)CCNC(=O)Cn1cnc2ccccc2c1=O,-13%
O=C(CCNS(=O)(=O)c1ccc(Cl)cc1)N1CCN(Cc2ccccc2)CC1,-8%
COc1ccccc1CNC(=O)C/C(C)=N/NC(=O)Cc1ccc(OC)c(OC)c1,-3%
COc1nc(OC)nc(N2CCC(C(=O)NCC3CCCCC3)CC2)n1,-1%
COC(=O)C1=C(C)NC(C)=C([N+](=O)[O-])C1c1ccccc1C(F)(F)F (stereo not drawn),-11%&-7%
CCn1nc(NC(=O)c2cccnc2)c2cc3ccccc3nc21,-7%
CCCc1cc(=O)oc2cc(OCC(=O)N(C)C)c(Cl)cc12,?
CC(=O)c1ccc(Nc2nc(NCCO)nc(OC(C(F)(F)F)C(F)(F)F)n2)cc1,-22%
CCOc1ccc2nc(SCC(=O)NC3CCCc4ccccc43)sc2c1 (stereo not drawn),-18%
O=C(NC1CCCCCC1)C1CC(=O)N(Cc2ccccc2)C1 (stereo not drawn),3%
CCC(=O)Nc1c2c(nc3c1CCC3)CCCC2,-13%
O=c1[nH]c2cc3c(cc2cc1C(c1nnnn1C1CCCC1)N1CCSCC1)OCCO3 (stereo not drawn),?
COc1ccccc1N(C(=O)NCc1ccccc1)C1=NCC(C)S1 (stereo not drawn),-7%
COc1ccc(N2CCn3c2nc2c3c(=O)n(CCCc3ccccc3)c(=O)n2C)cc1,-20%
COC(=O)C1C2CCC(C2)C1C(=O)OCC(=O)c1ccccc1 (stereo not drawn),-11%
C=CCn1c(NCc2ccc3c(c2)OCO3)nc2ccccc21,-6%
CCOC(=O)N1CCN(Cc2nc3c(c(=O)n(C)c(=O)n3C)n2Cc2cccc3ccccc23)CC1,-6%
O=C(N/N=C/c1cccc(Oc2ccc([N+](=O)[O-])cc2[N+](=O)[O-])c1)c1cncc(Br)c1,-13%
CC1CC(=O)N(Cc2ccccc2)c2ccccc2N1C=O (stereo not drawn),1%
C=C1CC[C@H](O)C/C1=C/C=C1\CCC[C@]2(C)[C@H]1CC[C@H]2[C@@H](C)/C=C\[C@@H](C)C(C)C,-6%
COc1ccc(N2CCN(c3ncccc3C#N)CC2)cc1,-15%
O=C(Cn1cc([N+](=O)[O-])cn1)Nc1ccn(Cc2c(F)c(F)cc(F)c2F)n1,-4%
CCOc1ccc(/C=C2\SC(=O)N(CCNC(=O)C3COc4ccccc4O3)C2=O)cc1OC (stereo not drawn),?
COc1ccc(-c2[nH]nc3c2C(c2ccsc2)C(C#N)=C(N)O3)cc1 (stereo not drawn),-17%
Cc1[nH]oc(=O)c1N=Nc1ccccc1,-6%
COc1ccc(OC)c(NC(=O)C2CCCN2C(=O)C2CCC(C)CC2)c1 (stereo not drawn),2%
Cn1c(=O)[nH]c(=O)c2c1nc(N1CCOCC1)n2CCCSc1ncccn1,-10%
Cc1ccc(CSCCNC(=O)/C=C/c2ccc(Cl)cc2)cc1,-13%
CC1CCCN(C(=O)CSc2nnc(-c3c[nH]c4ccccc34)o2)C1 (stereo not drawn),16µM*
FC(F)(F)c1cccc(NC(=S)NCc2ccccc2)c1,28µM*
Cc1ccc(NC(=O)C(SCC(=O)O)c2ccccc2)cc1C (stereo not drawn),-10%
CSc1ccccc1-c1nnc(-c2ccc(Cl)cc2Cl)o1,?
Cc1cc(C)c(NC(=O)C2CCCN2CCOC(=O)c2cccc([N+](=O)[O-])c2)c(C)c1 (stereo not drawn),-5%
Cc1ccc(S(=O)(=O)/C(C#N)=C/c2c(N3CCC(C(N)=O)CC3)nc3ccccn3c2=O)cc1,25µM*
CCCCn1c(NS(=O)(=O)c2ccccc2)c(S(=O)(=O)c2ccc(C)cc2)c2nc3ccccc3nc21,?
CCOc1ccc(NC(=O)CSc2nnc(C34CC5CC(CC(C5)C3)C4)n2C)cc1,-18%
COC(=O)c1ccc[n+](CC(=O)c2ccc(Br)cc2)c1,-10%
COc1ccc(C(=O)NCCc2c[nH]c3ccccc23)cc1S(=O)(=O)N1CCOCC1,2%
COc1ccc(CC(=O)NC2CCN(Cc3nnnn3C(C)(C)C)CC2)cc1OC,-6%
O=C(Nc1cc(Cl)cc(Cl)c1)c1cnn2cccnc12,-20%
O=C(N/N=C/c1ccccn1)c1ccccc1,-8%
CC1(C)CC(=O)C(C(=O)Cc2ccccc2[N+](=O)[O-])C(=O)C1,-12%
CCOC(=O)c1ccc(N2C(=O)c3n[nH]c(-c4ccco4)c3C2c2cccc([N+](=O)[O-])c2)cc1 (stereo not drawn),-11%
CCOc1ccccc1OCc1nn2c(COc3ccccc3)nnc2s1,11µM*
CCC[C@@H]1C[C@@]1(CCC)C(NC(=O)OCc1ccccc1)c1ccc(-c2ccccc2)cc1 (stereo partly drawn),-10%
CCCCCCCCCCCCCc1ccco1,-8%
Cc1cc(-c2[nH]nc3c2C(c2ccsc2)C(C#N)=C(N)O3)c(C)s1 (stereo not drawn),-24%
CC(O)C(=O)N/N=C/c1cccc(Cl)c1Cl (stereo not drawn),-3%
O=C(Nc1ccccc1-c1nc2ccccc2[nH]1)c1sc2ccccc2c1Cl,-16%
COC(=O)[C@@]1(Cc2ccc(OC)cc2)[C@H]2c3cc(C(=O)N(C)C)n(Cc4ccc(C)c(F)c4F)c3C[C@H]2CN1C(=O)c1ccccc1,-17%
COc1ccc(C(=O)Oc2cccnc2)cc1OC,-10%

# Carrying on.
canonical_smiles,HPGD inh
CCCCCC(=O)Nc1c(-c2cccs2)c(=O)c2ccccc2n1C,-20%
Cc1ccc(CNC(=O)C(=O)NCC2CCCO2)cc1 (stereo not drawn),-11%
COC(=O)C1C2C=CC3(CN(CCc4ccccc4)C(=O)C13)O2 (stereo not drawn),-1%
CC(Oc1ccc(Cl)cc1Cl)C(=O)/C=C/N(C)C (stereo not drawn),22µM*
Cc1ccc(-n2c([C@@H]3C[C@H]3c3ccccc3)n[nH]c2=S)cc1,?
NC(=O)c1nn(-c2cccc(Cl)c2)c(=O)cc1O,-8%
O=C(NCCN1CCCCC1)c1ccc(I)cc1,-3%
Cc1ccc(-n2nnnc2SCc2nc3sc(C)c(C)c3c(=O)[nH]2)cc1,-5%
CC1(C)C(c2ccccc2)=NC(c2ccccc2)N1O (stereo not drawn),-10%
Cc1ccc(C(=O)NCCN2CCCC2)cc1,-11%
CCCCOc1cccc(NC(=O)CSc2nccn2C)c1,-9%
CN(C)c1ccc(/C=C/c2cc[n+](C)cc2)cc1,-6%
CSc1nsc(SC)c1NC(=O)OCC1CCCO1 (stereo not drawn),-4%
CCOC(=O)Nc1ccc2c(c1)N(C(=O)N(C)C)c1ccccc1CC2,-10%
COc1ccc(C(=O)CN(C(=O)c2ccc(Cl)cc2)N2C(=O)c3ccccc3C2=O)cc1,-6%
CC1CCCO1 (stereo not drawn),-8%

# Some of these compounds in order of their number in HPGD inh, high to low:
compound	HPGD inh
FC(F)(F)c1cccc(NC(=S)NCc2ccccc2)c1	28µM*
CC(Oc1ccc(Cl)cc1Cl)C(=O)/C=C/N(C)C (stereo not drawn)	22µM*
CC1CCCN(C(=O)CSc2nnc(-c3c[nH]c4ccccc34)o2)C1 (stereo not drawn)	16µM*

# The results go on.
canonical_smiles,HPGD inh
Cc1cccc2cc(C(c3nnnn3C(C)(C)C)N3CCN(C(=O)c4ccco4)CC3)c(=O)[nH]c12 (stereo not drawn),-9%
CCCOc1ccc([N+](=O)[O-])cc1C1NC(=S)NC(c2ccccc2)=C1C(=O)OCC (stereo not drawn),-3%
COC(=O)CCCC1=CC2=CC(=O)C(C)(OC(=O)c3cccs3)C(=O)C2=CN1CCCCO (stereo not drawn),4%
CSCCC(NC(N)=O)C(=O)N(C)CC(=O)Nc1cc(C)ccc1C (stereo not drawn),-4%
CC(C)c1nc2oc3ccccc3c(=O)c2c(=O)n1-c1ccccc1,-24%
CCC(Sc1nc(-c2ccccc2)c(C#N)c(=O)[nH]1)C(=O)Nc1cc(C)on1 (stereo not drawn),-8%
Cn1c(NC(=O)C[n+]2cc(-c3ccc(F)cc3)n3c2CCC3)cc(=O)n(C)c1=O,-7%
CCOc1ccc2nc3c(cc2c1)CN(CCOC)C(=NC)S3,?
CC(C)COC(=O)NCC12C=CC(O1)C1C(=O)N(c3ccc(Cl)cc3)C(=O)C12 (stereo not drawn),18µM*
Cc1ccc(CCC2C3=C(CCCC3=O)OC3=C2C(=O)CCC3)cc1,6%
CCn1c(COc2cccc3ccccc23)nnc1SCC(N)=O,-11%
CC(=O)NC(Cc1c[nH]c2ccccc12)C(=O)OCC(=O)Nc1cc(C)on1 (stereo not drawn),-1%
Clc1ccc(Cl)c(-c2ccc(/C=N/c3ncn[nH]3)o2)c1,-17%
CC(C)CN(C(=O)COC(=O)Cn1cnc2ccccc2c1=O)C1CCS(=O)(=O)C1 (stereo not drawn),-23%
CC1=C(C(N)=O)C(c2ccco2)C(C(N)=O)=C(C)N1,-5%
Cc1cc(C)c2c(n1)sc1c(=O)n(-c3ccccc3)c(=O)[nH]c12,?
N#Cc1nc(COc2ccc(Cl)cc2)oc1NCc1ccc2c(c1)OCO2,?
COC(=O)C1=C(C(=O)OC)[C@@H]2N(C)c3ccccc3[C@@]23C[C@@H](C(=O)OC)N(C(=O)CC(C)C)C3=N1,-3%
Cc1ccc2oc(=O)c3cnn(CC(=O)N4CCN(c5ccccc5)CC4)c3c2c1,-1%
CCCC(=O)c1cc(F)c(N2CCOCC2)cc1C,-21%
Cc1ccc(CNc2nc(N)c([N+](=O)[O-])c(Nc3ccc(F)cc3)n2)cc1,-8%
COC(=O)C1=C(C(=O)OC)[C@@H]2N(C)c3ccc(OC)cc3[C@@]23C[C@@H](C(=O)OC)N(S(=O)(=O)c2ccc(Br)cc2)C3=N1,2%
COc1ccc(CCNC(=O)COC(=O)/C=C/c2ccc(OC)c(OC)c2)cc1,?
O=C(c1csnn1)N1CCC2(CC1)CN(c1ccccn1)C2,?
CCN1CCC(C(N)=O)CC1,-6%
Cc1c(C(=O)NCc2cccnc2)oc2ccccc12,-12%

# Screening results from PubChem.

# Some of the compounds tested; the hit share may differ from the screen's.
